hNpr1 antagonist = human Npr1 receptor antagonism. HEK293 hNpr1 GloSensor cGMP, ANP-stimulated luminescence. P16066. Potency, µM (doses to about 46.3 µM), inactives show at the highest dose activity change, negative = inhibition, hits mostly inhibitors. hit rate 1.6% among 76,000; active = well fitted inhibition curve with a large enough effect; inconclusive = small, poorly fitted or top-dose-only effect; inactive = no such curve, though single readings can be large or run the other way;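 also: nearly all actives have a fitted effect of over 60% in size; nearly all hits also lower the signal before the agonist is added; a reference antagonist and vehicle were the controls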
Target sequence (P16066 whole entry, looked up): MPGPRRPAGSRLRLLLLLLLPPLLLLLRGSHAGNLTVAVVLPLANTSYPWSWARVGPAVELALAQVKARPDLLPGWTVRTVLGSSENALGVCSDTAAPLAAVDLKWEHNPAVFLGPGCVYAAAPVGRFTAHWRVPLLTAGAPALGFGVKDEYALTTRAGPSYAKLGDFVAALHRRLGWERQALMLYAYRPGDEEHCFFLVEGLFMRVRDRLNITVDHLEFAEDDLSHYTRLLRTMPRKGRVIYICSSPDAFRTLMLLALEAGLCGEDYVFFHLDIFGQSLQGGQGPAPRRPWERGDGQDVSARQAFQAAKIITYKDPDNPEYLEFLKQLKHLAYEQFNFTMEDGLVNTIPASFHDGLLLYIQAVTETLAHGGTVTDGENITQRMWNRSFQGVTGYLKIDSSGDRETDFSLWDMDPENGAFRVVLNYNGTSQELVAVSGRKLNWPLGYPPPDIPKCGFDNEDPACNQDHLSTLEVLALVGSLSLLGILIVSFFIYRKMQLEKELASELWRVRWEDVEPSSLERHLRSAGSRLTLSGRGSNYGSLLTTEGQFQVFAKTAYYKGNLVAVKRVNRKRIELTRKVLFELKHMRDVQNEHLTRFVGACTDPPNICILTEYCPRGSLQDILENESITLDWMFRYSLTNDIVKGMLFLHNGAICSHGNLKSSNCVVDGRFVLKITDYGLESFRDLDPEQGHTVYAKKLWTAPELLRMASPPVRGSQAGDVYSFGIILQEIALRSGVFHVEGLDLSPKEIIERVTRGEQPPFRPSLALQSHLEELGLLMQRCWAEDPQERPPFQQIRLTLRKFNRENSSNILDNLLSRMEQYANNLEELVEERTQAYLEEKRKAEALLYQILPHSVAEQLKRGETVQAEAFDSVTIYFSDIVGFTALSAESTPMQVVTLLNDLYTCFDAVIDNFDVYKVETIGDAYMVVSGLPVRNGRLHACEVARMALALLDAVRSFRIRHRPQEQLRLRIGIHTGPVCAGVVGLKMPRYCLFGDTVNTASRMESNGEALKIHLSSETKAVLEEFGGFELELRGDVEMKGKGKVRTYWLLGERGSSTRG
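HEK293 cells stably expressing human Npr1 and cGMP GloSensor pGS-40F, loaded 2 h with 2% GloSensor reagent, given compound 30 min at room temperature. Luminescence read before and 20 min after 0.1 nM hNppA.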
Active calls of the source: *; ? = inconclusive; & = joins results of further samples; [ ] = another dose, or the depositor's remark. % is scaled to controls: 0 for no effect and ±100 for the full control effect; potency is read from the fitted curve at half-maximal effect.

hNpr1 antagonist | compound
-1%[70.6 µM] | CC1=C[C@@H](CNCc2ccncc2)[C@H](C(C)C)C[C@H]1Cc1nnc(C)o1
-12%[70.6 µM] | O=C(NCC1CN(Cc2ccncc2)CC12CN(c1ccccc1)C2)Nc1ccccc1 (centres undefined)
1%[70.6 µM] | Cc1ccc(S(=O)(=O)N[C@H]2C[C@@H](c3nc(-c4ccccc4)no3)N(C)C2)cc1
0% | Cc1cc(C)n(C2CN(Cc3cccc(OCC(O)CN4CCOCC4)c3)C2)n1 (centres undefined)
-8% | COC[C@@H]1CN(C(=O)Cc2cccc(F)c2)C[C@H]1c1ccncc1
-6% | CCOc1ccccc1CNC(=O)c1ccc(CN2C(=O)NC3(CCOCC3)C2=O)cc1
1% | CC(C)c1nnc(NC(=O)Cn2nc3c(cc2=O)CCCCC3)s1
3% | CN1C(=O)c2cccn2CC1C(=O)N1CCN(c2ncccn2)CC1 (centres undefined)
-17%[70.6 µM] | CC1(C)[C@H]2CC[C@@H](CNC(=O)c3ccncc3)[C@@H]1C2
-30% | Cc1nn2c(c1-c1ccccc1-c1ccccc1)N(C(=O)Cc1ccc3c(c1)OCO3)CCC2
3% | C=CCNC(=O)[C@@H]1CCCC[C@@H]1C(=O)N1CCn2nc(C(=O)O)cc2C1
-1% | COCc1cc(=O)n(CC(=O)Nc2ccc(F)c(Cl)c2)c(N2CCOCC2)n1
0% | CS(=O)(=O)N1CCCCC1c1nc(CCOCC2CCCC2)no1 (centres undefined)
0% | COC(=O)c1ccccc1NC(=O)N1CCC[C@@H](O)[C@H](NC(=O)c2ccc(OCCN3CCCC3)cc2)C1
-19% | COc1ccccc1CC(=O)Nc1cnc(-c2cccc(Cl)c2)nc1
-26%[70.6 µM] | COc1ccc(-c2noc([C@@H]3C[C@H](NS(=O)(=O)c4ccccc4)CN3C)n2)cc1

Some of the entries above in a different format.
Molecule	hNpr1 antagonist
Cc1cc(C)n(C2CN(Cc3cccc(OCC(O)CN4CCOCC4)c3)C2)n1 (centres undefined)	0%
COC[C@@H]1CN(C(=O)Cc2cccc(F)c2)C[C@H]1c1ccncc1	-8%
CCOc1ccccc1CNC(=O)c1ccc(CN2C(=O)NC3(CCOCC3)C2=O)cc1	-6%
CC(C)c1nnc(NC(=O)Cn2nc3c(cc2=O)CCCCC3)s1	1%

Carrying on.
hNpr1 antagonist | compound
4% | O=C(Cn1cnnn1)N1CCc2onc(-c3cccc4ccccc34)c2C1
1% | c1ccc(-c2nc(C3CC3)no2)c(OC2CNC2)c1
10%[70.6 µM] | c1ccc(CN2CCn3c(nnc3-c3cccnc3)C2)cc1
3% | CC(C)N1CCC(CC(=O)N2CCn3nc(Cc4ccccc4)cc3C2)CC1
5% | COCCC(=O)N1CC(c2nc(CCOc3cccc(C)c3)no2)C1
-1%[70.6 µM] | O=C(Nc1ccccc1)N1CCn2c(nnc2-c2ccccc2)C1
-14% | Cc1ccc(C(=O)NCCn2cccc2-c2nc(-c3ccc4c(c3)OCO4)no2)cc1
2% | Cc1ccc(C(=O)N2CCCOCCNC(=O)CC2)s1
-3% | CCCn1c(C)c(CC(=O)N[C@@H](C)C(N)=O)c2c1CC(C)(C)CC2=O
5% | FC(F)(F)C1CN(c2ccc3cc(Cl)ccc3n2)CCO1 (centres undefined)
-6% | O=C(Cc1ccc(F)cc1)NC1CCN(c2cc(-c3ccc(Cl)cc3)[nH]n2)CC1
8% | Cc1cc(C(=O)NC2CC(c3cc(=O)[nH]c(C4CC4)n3)C2)c(C)o1 (centres undefined)
20µM* | COc1ccc(-n2nc(C)c([C@H]3C=C[C@@H](OC(=O)Nc4cccc(F)c4)C3)c2C)cc1
6% | OCC1CN(C2CCC2)CC12CCN(C1CCC1)CC2 (centres undefined)
1% | COCCNC(=O)[C@@H]1C[C@@H](O)CN1C1CCN(C(=O)c2ccco2)CC1
-12% | Cc1cccc(CC(=O)N2CCCC2c2nc(C3CCOCC3)no2)c1 (centres undefined)
-18% | CCC1(N2CCN(C(=O)CCc3c[nH]c4ccccc34)CC2)CCN(S(C)(=O)=O)C1 (centres undefined)
16% | COCc1nc(C2CCCN(C(=O)c3cccc(OC)c3OC)C2)no1 (centres undefined)
21%[70.6 µM] | COC(=O)CNC(=O)C1CCCN(c2nc3ncccc3o2)C1 (centres undefined)
-29% | CC(=O)c1cc(CN2CCC3(CC2)CN(CC(C)c2ccccc2)C(=O)O3)cs1 (centres undefined)
-1% | COc1ccc(Cl)cc1C(=O)N1CCC2(CC1)CN(C)CCN2C
? | O=C(CCn1cnc(-c2ccccc2)c1-c1cc2ccccc2[nH]1)N1CCCC1
0% | CCC[C@@H]1CN(c2cc(OC)nc(N)n2)C[C@H]1C(=O)O
-2%[70.6 µM] | CC(C)(C)CC(=O)N1CC[C@H]2COC(=O)N2c2cc(F)ccc2C1
8% | O=C(CCC[C@@H]1[C@H]2CCCN3CCC[C@@H](CN1C(=O)c1cccnc1)[C@@H]23)N1CCCC1
0% | O=C(c1n[nH]c2c1CN(Cc1cccnc1)CC2)N1CCOCC1
10µM* | COc1ccc(CN2C=C(C(=O)OCc3noc(-c4ccc(C)cc4)n3)C(C)=NS2(=O)=O)cc1
3% | CCCC1(C(=O)O)CCCN(S(=O)(=O)c2ccsc2C(=O)O)C1 (centres undefined)
-26% | Cc1ccc(C(CC(=O)Nc2ccc(F)cc2)c2c[nH]c3ccccc23)cc1 (centres undefined)
-19% | CC(C)(C)C(=O)N1CCCN(Cc2ccc3c(c2)OCO3)c2ccccc21
-14% | O=C(NC1CCC1)C1CCCN(C2CCN(C3Cc4ccccc4C3)CC2)C1 (centres undefined)
-6%[70.6 µM] | CC(C)c1noc([C@@H]2C[C@H](NS(=O)(=O)c3ccc(F)cc3)CN2C)n1
-3%&19%[70.6 µM] | O=C(Nc1ccc(F)cc1)C1CN(c2cccc(Cl)c2)C(=O)N1 (centres undefined)
6% | CC(NC(=O)C1CCC1)C(=O)N1CCN(c2ccccn2)CC1 (centres undefined)
2% | Cn1nccc1CCC(=O)N1CC[C@@]2(O)CCN(C(=O)C3CCC3)C[C@H]2C1
-1%[70.6 µM] | COc1ccc2c(c1)CCN=C2C[C@H]1CN(C(=O)c2ccccc2)CC[C@H]1CC(=O)O
-9%[70.6 µM] | COCC(=O)N[C@H]1C[C@H]2C(=O)Nc3ccc(/C=C/c4ccccc4)cc3C(=O)N2C1
-1% | C=C(C)CNc1ccc(C(=O)NCCC2CCCCN2C)cn1 (centres undefined)
-2% | O=C(Cn1nc2c(cc1=O)CCCCC2)N[C@@H](C(=O)O)c1ccccc1
2%[70.6 µM] | COCCNC(=O)c1ccc2c(c1)C1(CCN(C)C1)CN2Cc1csc(C)n1 (centres undefined)
4% | COCc1noc([C@@H]2CN(S(=O)(=O)Cc3cccc(F)c3)C[C@H]2C(N)=O)n1
1%[70.6 µM] | O=c1cc(-c2cccnc2)oc2c(NCCc3ccccn3)nccc12
0% | Cc1noc(C)c1CC(=O)N1CCCn2ccnc2C1c1ccccc1 (centres undefined)
1%[70.6 µM] | O=C(NC1CCCCC1)N1Cc2[nH]cnc2C[C@H]1c1nc(-c2ccncc2)no1
-2% | COc1ccc(NC(=O)Cn2nc3n(c2=O)CCCCC3)cc1OC
-1%[70.6 µM] | CNC(=O)[C@@H](c1ccccc1F)N1CCC[C@H]1C(=O)NC1CC1
4% | COc1ccc(-c2nn(-c3ccccc3C)cc2CN2CCN(C)C(=O)[C@@H]2C)cc1F
0%[70.6 µM] | CC(C)CNC(=O)c1ccc2c(c1)C1(CCN(C)C1)CN2CC1CCOCC1 (centres undefined)
3%[70.6 µM] | O=c1cc(-c2ccncc2)oc2c(-c3ccccc3Oc3ccccc3)nccc12
-15% | Cc1ccc(C)c(C(=O)N2CCCC(n3cc(-c4nc(C(C)C)no4)nn3)C2)c1 (centres undefined)
4% | Cc1ccc(CC(=O)Nc2ccc(-c3nnc4n3CCCC4)cc2)cc1
-26%[70.6 µM] | OC(c1cccc(C(F)(F)F)c1)c1nc(Nc2ccc(F)cc2F)n[nH]1 (centres undefined)
-6% | O=C(C1COc2ccccc2C1)N1CCC(Cc2noc(C3CC3)n2)CC1 (centres undefined)
0% | CNC(=O)N1CCC(Cc2nncn2C)C1 (centres undefined)
8% | Cc1cccc(NC(=O)N2CCC3(CC2)SCC(=O)N3Cc2ccccc2)c1C
-1% | O=C(NC1CC1)[C@@H]1C[C@H](Oc2ccccc2)CN1C(=O)C1CCC1

Next section.
hNpr1 antagonist | compound
0% | COC[C@@H]1CN(C(=O)c2ccc(F)cc2F)C[C@H]1c1ccncc1
3%[70.6 µM] | COC1CCN(C(=O)c2c(-c3cnn(C)c3NCc3cccnc3)noc2C)CC1
11% | Cc1ncsc1CN1CCC(C2CCN(S(C)(=O)=O)CC2)C1 (centres undefined)
-2% | Cc1nnc(NC(=O)C2CC(=O)N(c3n[nH]c4cccc(F)c34)C2)s1 (centres undefined)
7% | COC(=O)Cn1ccn2nc3c(c2c1=O)CCCC3
-4%[70.6 µM] | COc1ccc(-c2cc(-c3ccc4c(c3)CNC4=O)cn3cncc23)cc1
2% | Cc1ccc(C(=O)N2CCC3(CC2)c2[nH]c4ccccc4c2CCN3C)cn1
0% | Cc1nc(N)nc(C)c1CC(=O)N1CCn2nc(C(O)CO)cc2C1 (centres undefined)

Next part; it opens with the 3 that closed the last part.
hNpr1 antagonist | compound
-4%[70.6 µM] | COc1ccc(-c2cc(-c3ccc4c(c3)CNC4=O)cn3cncc23)cc1
2% | Cc1ccc(C(=O)N2CCC3(CC2)c2[nH]c4ccccc4c2CCN3C)cn1
0% | Cc1nc(N)nc(C)c1CC(=O)N1CCn2nc(C(O)CO)cc2C1 (centres undefined)
2% | CCC1CN(Cc2cn(Cc3ccccc3)nc2-c2cc3ccccc3o2)CCO1 (centres undefined)
3%[70.6 µM] | CC(C)[C@H]1NC(=O)[C@@H]2[C@@H](NC(=O)NC3CCCCC3)CCN2C1=O
2% | COc1ccc(OC)c(S(=O)(=O)N2CCC(n3cnnc3C)CC2)c1
-28%[70.6 µM] | O=C(NCCc1ccccn1)c1c[nH]c2ncccc12
-20% | COc1ccc(C)cc1NC(=O)CCc1ccc2c(c1)CN(C(=O)C1CC1)CCO2
? | O=[S+]1([O-])NC2(CCN(Cc3cccc4ccccc34)C2)CNc2ccccc21 (centres undefined)
5% | CC(C)N1C(=O)C2(CCCC2)C1C(=O)N1CCN(C2CCCCC2)CC1 (centres undefined)
2% | O=S(=O)(c1cccc(Cl)c1)N1CCC(n2cnnc2C2CC2)CC1

3 compounds already listed, ordered by the value under hNpr1 antagonist, rising.
compound | hNpr1 antagonist
COc1ccc(C)cc1NC(=O)CCc1ccc2c(c1)CN(C(=O)C1CC1)CCO2 | -20%
O=S(=O)(c1cccc(Cl)c1)N1CCC(n2cnnc2C2CC2)CC1 | 2%
CC(C)N1C(=O)C2(CCCC2)C1C(=O)N1CCN(C2CCCCC2)CC1 (centres undefined) | 5%

More results.
hNpr1 antagonist | compound
5%[70.6 µM] | CN1C(=O)C2(CCN(Cc3cncs3)C2)c2ccccc21 (centres undefined)
-3% | CN(C)CCNC(=O)C[C@H]1NC(=O)c2ccccc2NC1=O
2% | CC(C)(O)C1CCCN(C(=O)c2cc(COc3cccc(F)c3)[nH]n2)C1 (centres undefined)
-1% | CCOCc1nc(C2CCCN(C(=O)NC3CCCC3)C2)no1 (centres undefined)
2% | COc1ccc(OC)c(NC(=O)Cn2nc3n(c2=O)CCCCC3)c1
2% | O=C(N[C@@H]1CN(Cc2ccccc2)C[C@H]1CO)c1cn[nH]c1
-15% | O=C(CCc1ccccc1)Nc1cnc(-c2cccnc2)nc1
7%[70.6 µM] | CCNC(=O)N1C[C@@H]2OCC(=O)N(C(C)C)[C@@H]2C1
3% | Cc1cc(C)n(C2CN(c3cc(C4CC(O)C4)nc(C)n3)C2)n1 (centres undefined)
-1% | CCC(C)NC(=O)N1CC(n2cc(C(=O)N3CCOCC3)nn2)C1 (centres undefined)
-18% | CC(=O)N1CCC(Oc2ccc(Cl)cc2C(=O)N(C)Cc2sccc2C)CC1
7% | Cc1ccc(C)c(NC(=O)CN2C(=O)NC3(CCC(C)CC3)C2=O)c1 (centres undefined)
5%[70.6 µM] | O=C(c1ccccn1)N1CC[C@H]2COC(=O)N2c2cc(F)ccc2C1
0% | O=C(CC1CCCC1)N1CCCC(c2nc(C3CCOCC3)no2)C1 (centres undefined)
19% | O=C(c1cc(F)ccc1F)N1CCCC(c2nc(C3CCOCC3)no2)C1 (centres undefined)
-1% | COCC1CN(C2CCC2)CC12CCN(C(=O)c1ccoc1)CC2 (centres undefined)
0% | COCCCn1c(C)cc(C(=O)N2CCCC(CO)CCNC(=O)CC2)c1C (centres undefined)
2% | O=C(Cn1nc2c(cc1=O)CCCC2)NCC1CCCO1 (centres undefined)
2% | Cc1ccc(C(=O)N2CCC3(CC2)CC(N2CCN(CC(C)C)CC2)CCO3)s1 (centres undefined)
10% | NC(=O)c1ccc(NC(=O)C[C@H]2NC(=O)c3ccccc3NC2=O)cc1
-7% | O=C(CCC1CCN(C(=O)c2ccccc2F)CC1)NCc1ccco1
1% | CCN1CC(c2ccccc2)CC2(CCN(C(=O)c3ccn(CC)n3)CC2)C1 (centres undefined)
9% | Cn1cnc(C(=O)N2CCOc3ccc(CCC(=O)NCC4CC4)cc3C2)c1
9% | COc1cc(Cl)ccc1C(=O)N1CCC(OC2CCN(C)CC2)CC1
? | O=C(c1cc(-c2ccccc2F)cc2c1OCCN2Cc1cccnc1)N1CCC1

From PubChem

This is a subset. The share of hits here may be higher or lower than overall.
